KCNQ2 inh – KCNQ2 channel blockers in CHO-K1 cells – cell-based, FluxOR thallium flux, B-score, primary screen (AID 2156). B-score at 10 µM. 20 min; stronger effect = lower value; only compounds with negative scores are shown here; some inactives read as strong as hits. 1.1% of 310,000 active. O88943;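 active = fluorescence ratio B-score at most minus 3 library SDs, with starting brightness B-score within 2 library SDs, cut at about -5.5 in these data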
Target sequence (O88943 whole entry, looked up): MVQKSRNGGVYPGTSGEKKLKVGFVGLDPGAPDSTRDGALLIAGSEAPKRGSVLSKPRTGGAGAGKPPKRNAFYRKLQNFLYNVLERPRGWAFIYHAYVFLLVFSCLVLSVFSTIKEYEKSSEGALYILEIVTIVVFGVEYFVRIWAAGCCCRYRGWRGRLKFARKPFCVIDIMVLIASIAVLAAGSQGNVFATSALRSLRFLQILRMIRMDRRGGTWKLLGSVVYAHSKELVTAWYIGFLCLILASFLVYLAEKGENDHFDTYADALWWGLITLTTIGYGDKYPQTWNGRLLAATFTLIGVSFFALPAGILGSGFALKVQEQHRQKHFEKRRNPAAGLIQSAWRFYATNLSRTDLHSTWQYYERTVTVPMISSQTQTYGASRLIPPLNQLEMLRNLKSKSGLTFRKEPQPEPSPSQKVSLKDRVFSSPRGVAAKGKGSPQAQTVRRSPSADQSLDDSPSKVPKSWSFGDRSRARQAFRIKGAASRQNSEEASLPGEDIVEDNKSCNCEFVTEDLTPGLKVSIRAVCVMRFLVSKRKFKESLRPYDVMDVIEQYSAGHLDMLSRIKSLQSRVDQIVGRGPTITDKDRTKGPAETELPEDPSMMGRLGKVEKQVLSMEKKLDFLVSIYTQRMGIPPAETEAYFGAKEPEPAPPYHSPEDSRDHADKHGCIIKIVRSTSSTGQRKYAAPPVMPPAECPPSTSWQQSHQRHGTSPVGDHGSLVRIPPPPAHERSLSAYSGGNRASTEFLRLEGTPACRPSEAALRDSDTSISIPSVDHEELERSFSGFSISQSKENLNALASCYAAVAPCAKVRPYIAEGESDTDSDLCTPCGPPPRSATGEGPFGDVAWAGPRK
KCNQ2 inh baseline – recorded beside KCNQ2 inh, whose call it bears; B-score; measured here: initial fluorescence intensity artifact check;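 brightness before thallium and not channel activity; 0 = typical well and far values either way flag optical interference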
* marks the source's active call; other numbers are inactive results; i = inactive. An excerpt; count on the stated rates, not on these rows.

Sequence of screens: KCNQ2 inh, KCNQ2 inh baseline
COc1ccc(N2CCN(CCC(=O)c3ccc4ccccc4c3)CC2)cc1
→ i, -0.49
CC(=O)c1ccc(N2CCN(S(=O)(=O)c3c(C(=O)N4CCCCC4)c(C)n(C)c3C)CC2)cc1
→ i, 0.11
O=C(Nc1ccc(F)cc1)Nc1ccc(Oc2ncnc3cc(Cl)ccc23)nc1
→ i, 1.4
O=C(c1cc2c(s1)CCC2)N1CCN(c2ccccc2)CC1
→ i, -0.83
CCSC1=C(C#N)C(c2ccc(C)o2)CC(=O)N1 (stereo not drawn)
→ i, -0.04
O=C(NN1C(=O)/C(=C/c2ccc(O)c(O)c2)SC1=S)c1ccccc1
→ i, 1.1
COC(C(=O)Nc1cccc([N+](=O)[O-])c1)c1ccccc1 (stereo not drawn)
→ i, 0.01
CCCN(C(=O)c1ccco1)c1nnc(-c2cccc(C)c2)s1
→ i, -2
CC1CCN(CCCCOc2ccccc2F)CC1
→ i, 0.71
CCOC(=O)c1cc2sccc2n1CCCN1C(=O)c2ccccc2C1=O
→ i, 1.6
CN1CCc2c(sc3nc(SCC(=O)N4CCOCC4)n(-c4ccc(Cl)cc4)c(=O)c23)C1
→ i, -2
Cc1coc(C)c1C(=O)CC1(O)C(=O)N(Cc2ccccc2)c2ccccc21 (stereo not drawn)
→ i, 0.04
O=C(O)c1ccc(NS(=O)(=O)/C=C/c2ccccc2)cc1
→ i, 0.63
c1ccc(C(c2ccccc2)N2CCN(c3nc4ccccc4n4cnnc34)CC2)cc1
→ i, -0.27
Cn1nc(C(=O)NCc2cccs2)c2ccccc2c1=O
→ i, 0.12
CC(C)CCn1nnnc1C(c1ccccc1)N1CCC(C(N)=O)CC1 (stereo not drawn)
→ i, 0.98
C/C(CC(=O)Nc1cccc(Cl)c1Cl)=N\NC(=O)c1ccccc1C
→ i, -0.34
COC(CNC(=O)c1c[nH]c2ccc(S(=O)(=O)N3CCOCC3)cc2c1=O)OC
→ i, -0.22
O=C(c1ccc(Cn2cc(Cl)cn2)cc1)N1CCN(c2ccccc2)CC1
→ i, -0.02
Fc1cccc(NCc2ccoc2)c1
→ i, -1.1
CC(C)Cn1c(N)c(C(=O)COC(=O)c2ccc(Cl)cc2)c(=O)n(C)c1=O
→ i, 0.83
COc1ccc(N2C(=O)c3ccc(C(=O)Nc4cc(OC)ccc4OC)cc3C2=O)cc1
→ i, -1.2
CCCCOC(=O)c1ccc(NC(c2ccc(C)cc2)P(=O)(OC)OC)cc1 (stereo not drawn)
→ i, -0.55
CC(C)NC(=O)c1ccccc1NC(=O)C1COc2ccccc2O1 (stereo not drawn)
→ i, 2
Cn1c(CN2CCCCC2)nc2cc(NC(=O)c3ccccc3)ccc21
→ i, 1.6
CCOc1ccc(NC(=O)CCCOc2cc(=O)n(C)c3ccccc23)cc1
→ i, -0.88
CC(=O)Oc1cccc(N2C(=O)C3C4C=CC(CC4)C3C2=O)c1 (stereo not drawn)
→ i, -0.39
CC(=O)c1c(Cl)nc2cccc3c2c1-c1ccccc1C3=O
→ i, 0.15
Cc1cc(Cl)ccc1NC(=S)N(CCCN1CCOCC1)Cc1cccs1
→ i, 0.31
COc1ccc(C)cc1NC(=O)c1cc2c(s1)CCC2
→ i, -1

Overlap with the part before: four entries, followed by the next part.
Sequence of screens: KCNQ2 inh, KCNQ2 inh baseline
CC(=O)Oc1cccc(N2C(=O)C3C4C=CC(CC4)C3C2=O)c1 (stereo not drawn)
→ i, -0.39
CC(=O)c1c(Cl)nc2cccc3c2c1-c1ccccc1C3=O
→ i, 0.15
Cc1cc(Cl)ccc1NC(=S)N(CCCN1CCOCC1)Cc1cccs1
→ i, 0.31
COc1ccc(C)cc1NC(=O)c1cc2c(s1)CCC2
→ i, -1
OC(CNC1CCCC1)COc1ccc(-c2ccccc2)cc1 (stereo not drawn)
→ i, 0.17
CSc1ncccc1C(=O)OCC(=O)c1cccs1
→ i, -0.88
CCn1cnc2c1c(=O)n(Cc1cccc(Br)c1)c(=O)n2Cc1ccccc1
→ i, 2.1
O=[N+]([O-])c1c(Nc2ccccc2O)cc(Cl)c2nonc12
→ -16*, -8.2*
CCOC(CCNC(=O)c1cc(-c2cccs2)nc2ccccc12)OCC
→ i, -0.41
COc1cc(C(=O)NCCNC(=O)c2cc(OC)c(C)c(OC)c2)cc(OC)c1C
→ i, -0.05
CN(C)c1ccc(P(=O)(OC2CCCCC2)C(O)c2ccncc2)cc1 (stereo not drawn)
→ i, 1.7
CC1=CCC(Cc2nc3ccccc3o2)C1(C)C (stereo not drawn)
→ i, -0.78
COC(=O)/C(C#N)=C/c1c(Oc2cccc(C)c2C)nc2ccccn2c1=O
→ i, 2
COC(=O)c1cc2sccc2n1Cc1ccc(C)cc1
→ i, 0.58
COc1ccc(C(=O)NC(=S)Nc2cccnc2)cc1Cl
→ i, 1
C/C(N)=C(/C#N)C(=O)COC(=O)Cc1coc2ccc3ccccc3c12
→ i, 2.4
Cc1cccc(Cl)c1NC(=S)NCCc1ccccn1
→ i, 1.9
COc1ccc(N2CCN(CC(=O)c3ccc(O)c(C)c3O)CC2)cc1
→ i, -0.21
CCCc1cc(=O)oc2cc(OCC(=O)NCC3CCC(C(=O)O)CC3)ccc12 (stereo not drawn)
→ i, 0.84
NC(=O)c1nsc(C(=O)N(c2cccc(F)c2)C(C(=O)NCC2CCCO2)c2cccs2)c1N (stereo not drawn)
→ i, 0.71
CCOC(=O)N1CCN(CCC(=O)Nc2cc(OC)cc(OC)c2)CC1
→ i, -0.01
OC(CN1CCN(c2ccccc2F)CC1)c1ccc(F)cc1 (stereo not drawn)
→ i, -1.1
O=C(c1ccc2c(c1)OCCO2)C1CCN(C(=O)Nc2ccccc2F)CC1
→ i, 2.4
Cn1c(=O)c2c(nc(N3CCCCC3)n2CCNC2=NCCC2)n(C)c1=O
→ i, -0.55
COc1ccc(N2CCN(C(=O)CCNC(=O)c3ccc(C(C)(C)C)cc3)CC2)cc1
→ i, 0.07
CSc1cc(-c2ccc(Cl)cc2)c(C(=O)N2CCCC2)s1
→ i, -0.01
CSc1ccccc1C(=O)N1CCC(CCC(=O)NC2CC2)CC1
→ i, -0.31
Cc1[nH]c2ccccc2c1C(=O)CN1CCCC1
→ i, -1.1
Cc1ccc(CCNC(=O)CS(=O)Cc2nc(-c3cccs3)oc2C)cc1 (stereo not drawn)
→ i, -1.4
CCCCOc1cccc(/C=C(\C#N)C(=O)NC2CC2)c1
→ i, 0.06
c1ccc(-c2ccc(CN3CCN(c4ncccn4)CC3)cc2)cc1
→ i, 0.03
Cc1ccc(CNC(=S)Nc2cc(C(=O)O)ccc2C)cc1
→ i, 1.9
COc1ccc(-c2csc(NC3CCCCC3)n2)c(OC)c1
→ i, 4.3
CC1CCCCN1CC(=O)NC(c1ccccc1)c1ccccc1 (stereo not drawn)
→ i, -1.2

6 entries picked at random from the list so far:
Sequence of screens: KCNQ2 inh, KCNQ2 inh baseline
COc1ccc(N2CCN(CCC(=O)c3ccc4ccccc4c3)CC2)cc1
→ i, -0.49
Cn1c(=O)c2c(nc(N3CCCCC3)n2CCNC2=NCCC2)n(C)c1=O
→ i, -0.55
Fc1cccc(NCc2ccoc2)c1
→ i, -1.1
Cc1cccc(Cl)c1NC(=S)NCCc1ccccn1
→ i, 1.9
CC(=O)c1ccc(N2CCN(S(=O)(=O)c3c(C(=O)N4CCCCC4)c(C)n(C)c3C)CC2)cc1
→ i, 0.11
COC(C(=O)Nc1cccc([N+](=O)[O-])c1)c1ccccc1 (stereo not drawn)
→ i, 0.01

More records follow.
mol | KCNQ2 inh | KCNQ2 inh baseline
Cc1ccc(C(=O)NNC(=O)C(C)Sc2nc(N)cc(N)n2)cc1 (stereo not drawn) | i | 2.1
O=C1c2ccccc2C(=O)N1CC1c2ccccc2CCN1C(=O)N1CCOCC1 (stereo not drawn) | i | 1
O=C(NCCN1C(=O)C2C3C=CC(C3)C2C1=O)Nc1ccccc1 (stereo not drawn) | i | 0.06
C/C(=N/NS(=O)(=O)c1ccc(C)cc1)c1ccc2c(c1)OCO2 | i | 0.01
CCNS(=O)(=O)c1ccc2nc(NC(=O)/C=C/c3cc(OC)c(OC)c(OC)c3)sc2c1 | i | -1.9
COc1ccccc1N1CCN(C(=O)c2sc3nc(-c4ccccc4)cn3c2C)CC1 | i | -0.81
CCCc1cc(=O)[nH]c(SCC(=O)N(CC)c2c(N)n(Cc3ccccc3)c(=O)[nH]c2=O)n1 | i | -0.79
Cc1nnc(SCC2=C(C(=O)O)N3C(=O)C(NC(=O)Cn4cnnn4)C3SC2)s1 (stereo not drawn) | i | 1.4
CC(C)n1c(CN(C)c2ccccc2)nc2ccccc21 | i | -1.9
CC(=O)N1CCSc2ccc(S(=O)(=O)NCCc3ccc(Cl)cc3)cc21 | i | 0.49
Cc1ccc(S(=O)(=O)NCc2ccc(C(=O)N3CCN(c4ccc([N+](=O)[O-])cc4)CC3)cc2)cc1 | i | 0.92
O=C1c2ccccc2NC(c2ccc(Cl)cc2Cl)N1O (stereo not drawn) | i | 0.32
CC(=O)Nc1ccc(NC(=O)C(C)OC(=O)CSCc2cccc(Cl)c2)cc1 (stereo not drawn) | i | -0.37
O=C(Nc1nnc(-c2ccco2)o1)c1ccc2ccccc2c1 | i | -0.9
O=S(=O)(N/N=C\C=C\c1ccccc1)c1ccc(Br)cc1 | i | 0.01
O=C(C1CCCCC1)N1CCc2[nH]c3ccc(F)cc3c2C1 | i | 0.58
CCOC(=O)Cc1nnc(NC(=O)CSc2nncn2C)s1 | i | 1.8
O=C(NCCCSc1ccccc1)c1cc(Cl)ccc1O | i | 1.5
Cc1cc(NS(=O)(=O)c2ccc(NC(=O)CSc3nnc(-c4ccco4)n3Cc3ccco3)cc2)nc(C)n1 | i | 0.12
O=[N+]([O-])c1cccc(S(=O)(=O)c2cccc([N+](=O)[O-])c2)c1 | i | 0.67
Cc1cc(/C=C2/C(=O)N(C)C(=S)N2C)ccc1N1CCCC1 | i | 0.42
COc1ccccc1C1CC(c2cccc(NS(C)(=O)=O)c2)=NN1S(=O)(=O)c1ccccc1 (stereo not drawn) | i | 1.4
Cc1cccc(-n2nc3c(c2NC(=O)C2CC2)CS(=O)(=O)C3)c1C | i | 0.3
O=C(/C=C/c1ccc(O)c(O)c1)OC1C(O)CC(OC(=O)/C=C/c2ccc(O)c(O)c2)(C(=O)O)CC1O (stereo not drawn) | i | 1.9
C=CCSc1n[nH]c(=O)n1-c1cccc(C(F)(F)F)c1 | i | 1.4
CCCC(=O)Nc1cc(C)cn(Cc2c(F)cccc2Cl)c1=O | i | -2.1
CN(C)S(=O)(=O)c1cccc(C(=O)Nc2cc(Cl)cc(Cl)c2)c1 | i | -0.86
CC1CCC(=O)N(CCSc2ccccc2)CC1 (stereo not drawn) | i | -0.59
O=C(N=C1SC2CS(=O)(=O)CC2N1c1cccc(Cl)c1Cl)C1CCCO1 (stereo not drawn) | i | -0.41
COc1cc(S(=O)(=O)N2CC(=O)Nc3ccccc32)ccc1NC(C)=O | i | -1.5

The results go on:
mol | KCNQ2 inh | KCNQ2 inh baseline
COc1cccc(N2[C@@H](CC(C)=O)c3ccc(/C=C/C(C)=O)cc3S2(=O)=O)c1 | i | -0.94
Cc1cc(C(=O)COC(=O)c2ccc3c(c2)OCO3)c(C)n1CC1CCCO1 (stereo not drawn) | i | 1.1
O=C1N=C(N2CCOCC2)S/C1=C\c1ccc(-c2ccccc2Cl)o1 | i | 0.97
O=C(N/N=C/c1ccc(N2CCOCC2)o1)c1cccc(C(F)(F)F)c1 | i | -1.3
CCOc1ccc(CC(=O)N/N=C(\C)c2cccnc2)cc1OCC | i | 0.05
COc1ccc(NC(=O)CN(C)C(=O)Cc2ccc(S(=O)(=O)N3CCOCC3)s2)cc1 | i | 0.22
Cc1ccc(Nc2nc(NCc3ccco3)c3ccccc3n2)cc1 | i | -0.21
NNC(=O)c1ccc(N2CCCCCC2)c([N+](=O)[O-])c1 | i | -0.16
COc1ccc(CSCCNC(=S)Nc2ccccc2)cc1Cl | i | -1.5
COc1ccc(-n2cnc3c(sc4nc(N5CCOCC5)c5c(c43)CCCC5)c2=O)cc1 | i | 0.18
CC1(C)Cc2ccccc2C(NNC(=O)c2ccccn2)=N1 | i | -0.1
CCOc1ccc(-c2n[nH]c(C)c2-c2ccccc2OC)c(O)c1 | i | -0.97
Cc1ccc(C)c(S(=O)(=O)N2CCN(C(=O)c3cc(S(=O)(=O)NCc4ccccc4)ccc3C)CC2)c1 | i | 0.15
Cc1noc2ncnc(N3CCCC3)c12 | i | -0.01
CCOC(=O)c1ccc(NC(=O)NNS(=O)(=O)c2cc(OC)ccc2OC)cc1 | i | 0.08
O=C1C(c2ccccc2)SC(=Nc2ccccc2)N1S(=O)(=O)c1ccccc1 (stereo not drawn) | i | 3.3
CCN(CC)C(=O)CN1C(=O)NC2(CCc3ccccc3C2)C1=O (stereo not drawn) | i | -0.74
CCOC(=O)C(NC(=O)c1ccccc1)=C(C)C | i | -2
Cc1ccc2nc(CCl)[n+]([O-])c(-c3ccccc3)c2c1 | i | -0.43
CC1Cc2ccccc2N1C(=O)CCn1c(=O)sc2ccccc21 (stereo not drawn) | -6* | -1.5*
CC(C)(C)c1csc(NC(=O)c2cccs2)n1 | i | -0.1
O=C(Nc1ccc2oc(=O)ccc2c1)c1cccnc1Cl | i | -1.7
O=C(Nc1ccc(N2CCOCC2)nc1N1CCOCC1)c1cccc(C(F)(F)F)c1 | i | -0.98
COc1ccc(-c2nnn(CC(=O)N(Cc3ccccc3Cl)C(C(=O)NCC3CCCO3)c3ccco3)n2)cc1OC (stereo not drawn) | i | -1.4
CCOC(=O)c1[nH]c2ccc(OCC)cc2c1NC(=O)CN1CCCC(C)C1 (stereo not drawn) | i | -0.96
COc1cc(NC(=O)c2ccccc2F)ccc1NC(=O)c1ccccc1Cl | i | 1.7

Compound activity: PubChem BioAssay, Johns Hopkins Ion Channel Center
